# Source: PubChem BioAssay
# H5N1 antiviral = MDCK cell protection from H5N1 avian flu; cytopathic effect, luminescence, 72 h; hits give high values; no value below 0 was filed and about half of the inactive calls have no number; reference of the scale not given here; inhibition, % at 50 µM; 96,000 tested, 0.07% active; in the data active = inhibition above about 25%
# * marks the source's active call; other numbers are inactive results; i = inactive; & = joins results of further samples. Only part of the results is shown (hit frequency here may not be typical).
SMILES,H5N1 antiviral
C/C(=C\C(=O)c1ccc(C)cc1)Nc1cccc(O)c1,3.5
CCCCCc1nc2ccccc2c(=O)n1N,i
CCc1cc(-c2n[nH]c(C)c2Oc2ccc(C(C)C)cc2)c(O)cc1O,i
COc1ccc(-c2cc(C(=O)Nc3cccc(C(C)=O)c3)no2)cc1,i
Fc1ccccc1CSc1ncnc2c1oc1ccccc12,i
C=CCn1c(SCC(=O)N2CCc3ccccc3C2)nc2ccccc2c1=O,0.9
O=C(NCCCN1CCCC1=O)c1cc(=O)c2ccccc2o1,i
COc1ccc(C(=O)N2CCc3cc(OC)c(OC)cc3C2)cc1OC,0.6
Cc1cc2c(N)cccc2nn1,2.1
COc1ccc(CC(=O)Nc2ccc(S(=O)(=O)Nc3nccc(C)n3)cc2)cc1,0.6
COc1ccc(CNC(=O)COC(=O)c2cc(-c3ccco3)nc3ccccc23)cc1,0.2
CCCN(CCC)C1Sc2ccc(C(=O)OC)cc2NC1=O (stereo unspecified),0.6
COc1ccc(-c2c(C)oc3cc(O)cc(O)c3c2=O)cc1OC,0.9
Oc1ccccc1-c1cc(-c2cccc(F)c2)n[nH]1,2.8
Cc1ccc(OCCCC(=O)Nc2nncs2)cc1,1.5
COc1ccc2[nH]cc(C(=O)CN3CCCCC3C)c2c1 (stereo unspecified),i
CCOc1ccc(NC(=O)N2CCN(c3nc4ccccc4s3)CC2)cc1,i
CC(C)n1c(CCC(=O)O)ccc1-c1ccccc1,0.5
CCCCOc1cccc(-c2nnc(N)s2)c1,i
Cn1c(CNc2nc3ccccc3n2C)nc2ccccc21,i
Cc1ccccc1OCc1nc(-c2ccc(-n3cccc3)cc2)no1,i
CCOCCCNCc1cccc(OC)c1,0.0
O=C(Cc1ccccc1)Nc1cccc(-c2nnc(-c3ccco3)o2)c1,i
O=C(Cn1cnc2c(cnn2-c2ccc(F)cc2)c1=O)NCC1CCCO1 (stereo unspecified),i
Cc1nc(NCCN)c(C#N)c2c1COC(C)(C)C2,0.2
Cc1ccc(Nc2nc(N)nc(CN3CCCCCC3)n2)cc1,i
COc1cc(CNCc2ccncc2)cc(Br)c1OCc1ccccc1F,i
CC(C)(C)OC(=O)NCCc1nnc(S(=O)(=O)Cc2ccc(Cl)cc2Cl)o1,0.5
CC(=O)c1c(N2CCCC2)nc(=S)n(-c2ccccc2)c1C,0.5
COc1cc2c(c(OC)c1)C(c1ccncc1)CC(=O)N2 (stereo unspecified),0.8
CC(=O)C1=C(C)OC(N)=C(C(=O)OC(C)C)C12C(=O)Nc1ccccc12 (stereo unspecified),i
COc1cccc(C(=O)Nc2c(F)c(F)c(F)c(F)c2F)c1,1.1
O=C(O)CSc1cccc2cccnc12,1.8&0.8
CC1CCCN(CC(=O)Nc2ccc(S(=O)(=O)N3CCCCC3)cc2)C1 (stereo unspecified),i
CC1(NC(=O)c2cc(S(=O)(=O)N3CCCCC3)ccc2Cl)CCS(=O)(=O)C1 (stereo unspecified),i
COc1ccc(S(=O)(=O)Cc2ccc(C(=O)N3CCN(c4cccc(C)c4C)CC3)o2)cc1,2.5
CCCSC(=O)N(CC)CC(=O)Nc1c(CC)cccc1CC,i
COc1ccccc1OCCCCCNCCO,0.6
O=C(CSc1nc2ccccc2s1)NNC(=O)Nc1ccc(Cl)c(Cl)c1,i
CCCCNC(=O)n1c(SC)nc2ccccc21,i
CC(CC(=O)NC1CCCC1)c1ccccc1 (stereo unspecified),1.3
CCOC(=O)c1cc(C(=O)OCC)c2cc(Br)ccc2n1,i
CCOC(=O)c1ccc(N2C(=O)CC(N(C)Cc3ccccc3)C2=O)cc1 (stereo unspecified),i
COc1cccc(-c2cc(C(F)(F)F)nc(N3CCOCC3)n2)c1,i
Cc1cc2ccccc2c(=O)n1CC(=O)NCC(=O)N1CCN(c2cccc(Cl)c2)CC1,i
COC(=O)C1CCN(C(=O)COC(=O)Cn2cnnn2)CC1,0.5
CCc1ccc(NC2=NC(C(=O)NC3CCCCC3)CC(=O)N2)cc1 (stereo unspecified),i
O=C(Cc1nc(-c2ccc([N+](=O)[O-])cc2)cs1)Nc1ccccc1,0.1
O=C(NCC(F)(F)F)N1CCOCC1,0.5
CCOC(=O)c1cc(-c2ccc(OC)cc2)nc2c1c(C)nn2CCC#N,1.0
COc1ccc(/C(O)=C2\C(=O)C(=O)N(c3cc(C)on3)C2c2ccccc2OC)cc1C (stereo unspecified),i
COc1cccc(C(=O)OC(C)CN2CCCC2)c1 (stereo unspecified),0.4
Cc1ccc(C(=O)CCNc2ccc(Cl)cc2)o1,i
Cc1c(NC(=O)Cn2nc(C(=O)O)c3ccccc3c2=O)c(=O)n(-c2ccccc2)n1C,i
CS(=O)(=O)Nc1ccc(OCc2ccccc2)cc1,0.1
CSC1=C(C#N)C(CC(C)C)C(C(C)=O)=C(C)N1 (stereo unspecified),0.2
CCCn1c(SC(C)C(=O)O)nc2ccccc21 (stereo unspecified),0.6
CC(C)c1nnc(NC(=O)CCC(=O)NCC2CCCO2)s1 (stereo unspecified),0.1
COc1ccc(Cc2c(N)nc(N)nc2N)cc1,i
CN(c1ccc(C(=O)NCCc2ccccc2)cc1)S(C)(=O)=O,i
# (cont.)
SMILES,H5N1 antiviral
O=C(c1ccccc1)c1cnc(-c2ccc(Cl)cc2)s1,0.3
CC(c1nnc(SCn2nnc3ccccc3c2=O)n1-c1ccc(Cl)cc1)N(C)C (stereo unspecified),0.7
O=C(Nc1ccon1)c1cccc(Cl)c1,3.1
Cc1sc(NC(=O)CSc2nnnn2C2CCCC2)c(C#N)c1C,i
O=C(NC1CCCCC1)NC1CC2CCC(C1)N2Cc1nnnn1Cc1ccc2c(c1)OCO2 (stereo unspecified),i
COC(=O)c1cc(CSc2nnc(-c3ccccc3)c(-c3ccccc3)n2)oc1C,i
Clc1cccc(CSc2nnc([C@@H]3CCCN3)o2)c1,i
CC(C)(C)c1nc2ccccc2[nH]1,i
Cc1c(Cl)cccc1NC(=O)CN1CCC(C(O)(c2ccccc2)c2ccccc2)CC1,1.2
COc1ccc(CNC(=O)c2ccccc2SC)cc1,0.1
OC(CN1CCCCC1)CN1CCCCC1,0.5
Cc1ccc(S(=O)(=O)NC(=O)NC(C)(C)C)cc1,i
O=C(NCc1cccnc1)c1ccccc1Br,0.1
O=C(COC(=O)c1ccccc1S(=O)(=O)N1CCCCC1)NCC(F)(F)F,i
Cc1ccc2c(c1)SC1=NC(c3ccccc3)(C(F)(F)F)NC(=O)N12 (stereo unspecified),i
Cc1c(NC(=O)OCCNC(=O)Nc2ccccc2)sc(=S)n1C,0.1
CCCS(=O)(=O)N1CCN(Cc2ccncc2)CC1,0.1
CCCN(CC#CCO)CCC,i
O=C(C1CCCCC1)N1CCC(n2nnc3ccccc32)CC1,i
O=C(c1cccc(C(F)(F)F)c1)N1CCN(c2cc(=O)[nH]nc2-c2ccccc2)CC1,2.0
COCCN(C(=O)Nc1ccccc1)C(C)c1cccnc1 (stereo unspecified),2.3
Cc1ccc(N2CC(C(=O)OCc3ccccc3)CC2=O)cc1 (stereo unspecified),i
CCn1cc(-c2nnnn2-c2ccc(Cl)cc2)c(=O)c2ccccc21,i
CCc1nc(C)cn1S(=O)(=O)c1cc(Br)c(C)cc1OC,0.5
CC(NC(=O)C1CCCN(S(=O)(=O)c2cccs2)C1)c1ccccc1 (stereo unspecified),i
O=C(Nc1ccc(S(=O)(=O)Nc2ncccn2)cc1)c1ccc(Br)s1,1.0
COC(=O)C1=CNC=C(C(=O)OC)C1c1ccc(C(=O)OC)cc1,i
N#CCCN1CCN(S(=O)(=O)c2ccc(S(=O)(=O)N3CCCCCC3)cc2)CC1,1.3
Cc1cc(C)nc(N2CCC(C(=O)Nc3nnc(C)s3)CC2)n1,0.2
Cc1ccc(N(C(=O)C(F)(F)F)C(C(=O)NC2CCCCC2)c2cccs2)cc1C (stereo unspecified),i
COc1ccc(S(=O)(=O)N2CCN(CCO)CC2)cc1-c1nnc2c3ccccc3c(C)nn12,3.3
CCOc1ccc(-c2nc(CSCC(=O)NCCN3CCOCC3)c(C)o2)cc1,i
Cc1ccc(C(=O)N2CCCC(c3nc4c(nnn4Cc4ccccc4)c(=O)[nH]3)C2)cc1 (stereo unspecified),4.4
CSc1cccc(-n2cc(-c3ccc4c(c3)OCO4)[nH]c2=O)c1,i
O/N=C1\CCc2cc(Cl)ccc21,i
C=CCN1C(=O)CS/C1=C(\C#N)S(=O)(=O)c1ccc(C)cc1,i
Cc1nc(NCCN2CCOCC2)c2nnn(Cc3c(F)cccc3Cl)c2n1,i
CCOC(=O)N1CCN(C(=O)COc2ccc(S(=O)(=O)NCc3ccccc3)cc2)CC1,i
COc1cc(C(c2sc3ncnn3c2O)N2CCN(c3ccccc3F)CC2)cc(OC)c1OC (stereo unspecified),1.9
Cc1cc(C)nc(SCC2COc3ccccc3O2)n1 (stereo unspecified),i
CC(C)(CNCC(O)c1ccccc1)N1CCOCC1 (stereo unspecified),0.9
Cc1cccc(N2CCN(C(=O)C34CC5CC(CC(C5)C3)C4)CC2)c1C,0.7
O=C(Nc1ccccc1C1CC1)c1cccs1,0.6
O=C(Nc1ccc2c(c1)OCO2)C1CCN(S(=O)(=O)Cc2ccccc2)CC1,i
CCOc1ccc(N=Cc2c(O)n(C(C)(C)C)c(=O)[nH]c2=O)cc1,i
CS(=O)(=O)N(Cc1ccccc1)c1ccccc1C(=O)O,0.5
Cc1ccc(CNC(=O)CS(=O)Cc2nc(-c3cccs3)oc2C)cc1 (stereo unspecified),0.3
O=C(Nc1ccc(Br)cc1F)C1CCCN(S(=O)(=O)c2cnc[nH]2)C1 (stereo unspecified),0.3
CCOC(=O)c1nn(-c2ccccc2C)c2nc(-c3ccc(Cl)cc3)c(C#N)c(=O)n12,i
CCCCC(CC)CNC(=O)C1CCCN(S(=O)(=O)c2cnc[nH]2)C1 (stereo unspecified),0.1
COc1ccc(NC(=O)CN(c2ccc(C(C)C)cc2)S(=O)(=O)c2c(C)noc2C)cc1OC,0.3
O=C(CCN1C(=O)c2ccccc2C1=O)N1CCC(c2ccccc2)C1 (stereo unspecified),i
O=C(OCC(CO)OC(CO)n1ccc(=O)[nH]c1=O)c1ccccc1 (stereo unspecified),i
O=C(CSc1nc2cc(Cl)ccc2o1)c1cccs1,i
Cc1ccc(C(=O)NC(=S)Nc2cccc3nsnc23)cc1,i
COc1ccc(C(=O)NCCCn2ccnc2)cc1,i
O=C1CCCc2nn(-c3ccccc3)c(-c3ccncc3)c21,0.8
Cc1nc(NC2CCCC2)sc1C(=O)N(C)C,0.4
COC(=O)c1cc(NC2c3ccccc3C(=O)N2Cc2ccco2)cc(C(=O)OC)c1 (stereo unspecified),i
O=C(NCCc1ccccc1)c1ccc(CS(=O)(=O)Cc2ccccc2F)o1,0.6
# The list goes on:
SMILES,H5N1 antiviral
CCCC(=O)NC(=S)Nc1ccccc1C(F)(F)F,i
COc1ccc(-c2ncncc2-c2csc(C)n2)c(O)c1OC,1.1
CC1(C)CC(=O)C(C=Nc2ccc3cn[nH]c3c2)=C(O)C1,i
Cc1onc(-c2ccccc2)c1C(=O)N1CC(C)OC(C)C1 (stereo unspecified),i
Cc1cc2nc(C3CCN(Cc4nnnn4Cc4cccs4)CC3)[nH]c2cc1C,i
COc1ccccc1NC(=S)NC(=O)C(C)(C)C,4.0
O=C(O)c1ccccc1-c1ccccc1C(=O)NCc1ccco1,i
COc1cccc(C(=O)Nc2c(C)n[nH]c2C)c1,0.4
O=S(=O)(c1ccc(Cl)s1)N1CCc2ccccc2C1,2.9
CCOc1ccc(NC(=O)CN2CCN(CC(=O)Nc3ccc(Cl)c(C(F)(F)F)c3)CC2)cc1,1.9
O=C(O)CNC(=O)CCN1C(=O)c2ccccc2C1=O,0.2
O=C(CSCc1ccccc1)Nc1cccc(C(=O)Nc2ccc(C(=O)O)cc2)c1,1.6
COC(/C=C/Nc1ccc(OC)cc1)=C(C#N)C#N,i
COc1ccc(-c2nn3c(C4CCCCC4)nnc3s2)cc1OC,0.9
CN(C)S(=O)(=O)c1ccc(C(=O)Nc2ccc(Cl)cc2)cc1,0.2

# Part of the list above, with tabs.
molecule	H5N1 antiviral
O=C(CCN1C(=O)c2ccccc2C1=O)N1CCC(c2ccccc2)C1 (stereo unspecified)	i
O=C(OCC(CO)OC(CO)n1ccc(=O)[nH]c1=O)c1ccccc1 (stereo unspecified)	i
O=C(CSc1nc2cc(Cl)ccc2o1)c1cccs1	i
Cc1ccc(C(=O)NC(=S)Nc2cccc3nsnc23)cc1	i
COc1ccc(C(=O)NCCCn2ccnc2)cc1	i
O=C1CCCc2nn(-c3ccccc3)c(-c3ccncc3)c21	0.8
Cc1nc(NC2CCCC2)sc1C(=O)N(C)C	0.4
COC(=O)c1cc(NC2c3ccccc3C(=O)N2Cc2ccco2)cc(C(=O)OC)c1 (stereo unspecified)	i
O=C(NCCc1ccccc1)c1ccc(CS(=O)(=O)Cc2ccccc2F)o1	0.6
CCCC(=O)NC(=S)Nc1ccccc1C(F)(F)F	i
COc1ccc(-c2ncncc2-c2csc(C)n2)c(O)c1OC	1.1
CC1(C)CC(=O)C(C=Nc2ccc3cn[nH]c3c2)=C(O)C1	i
Cc1onc(-c2ccccc2)c1C(=O)N1CC(C)OC(C)C1 (stereo unspecified)	i
Cc1cc2nc(C3CCN(Cc4nnnn4Cc4cccs4)CC3)[nH]c2cc1C	i
COc1ccccc1NC(=S)NC(=O)C(C)(C)C	4.0
O=C(O)c1ccccc1-c1ccccc1C(=O)NCc1ccco1	i
COc1cccc(C(=O)Nc2c(C)n[nH]c2C)c1	0.4
O=S(=O)(c1ccc(Cl)s1)N1CCc2ccccc2C1	2.9
CCOc1ccc(NC(=O)CN2CCN(CC(=O)Nc3ccc(Cl)c(C(F)(F)F)c3)CC2)cc1	1.9
O=C(O)CNC(=O)CCN1C(=O)c2ccccc2C1=O	0.2
O=C(CSCc1ccccc1)Nc1cccc(C(=O)Nc2ccc(C(=O)O)cc2)c1	1.6

# The listing continues:
SMILES,H5N1 antiviral
O=c1c2c(-c3cccs3)csc2ncn1-c1ccc(Br)cc1,1.3
COCCSc1nnc(NC(=O)COC)s1,i
c1ccc(CSc2nnc(-c3ccco3)n2Cc2ccco2)cc1,i
Nc1c2c(nc3ccc(Br)cc13)N(c1ccccc1)CC2,i
O=S(=O)(c1ccccc1Cl)N1CCCC1c1nc(-c2ccccc2Cl)no1 (stereo unspecified),6.0
CC1(C)Cc2ccccc2C(=O)N1,0.1
COc1ccc(/C=C2\SC(c3ccc(C)cc3)=NC2=O)cc1OC,0.5
